Assay outcomes from PubChem.
Calb FLC: C. albicans growth modulation with fluconazole. C. albicans CaCi-2 (fluconazole-resistant clinical isolate) + fluconazole, Alamar Blue growth, 48 h. growth inhibition, % (no concentration beside the values). hit rate 0.57% among 300,000. AID 1979;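 active = most replicates above 75%; inconclusive = exactly half above 75%; inactive = most below 75%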;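 note: all wells also contain fluconazole at 8 µg/ml as a sub-toxic cotreatment; 0% = median of DMSO wells and 100% = median of geldanamycin control wells; wells of about 8 µL received 7.5 nL stock; the first replicate is given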
LANA-H2B inh: blocks KSHV LANA binding to histone H2A/H2B; inhibition, % (concentration not given with the values); cell-free LANA-H2A/H2B peptide, fluorescence polarization; Q9QR71; hit rate 0.6% among 320,000; in the data active = inhibition mostly above about 10%, no sharp cut-off; inactive = mostly below about 6.7%;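 note: stock transfer was 7.5 nL into about 10 µL; 0% = median of vehicle wells and 100% = median of positive control wells; one replicate is shown; the record names a cut of 25% in any replicate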
Target sequence (Q9QR71 whole entry, looked up): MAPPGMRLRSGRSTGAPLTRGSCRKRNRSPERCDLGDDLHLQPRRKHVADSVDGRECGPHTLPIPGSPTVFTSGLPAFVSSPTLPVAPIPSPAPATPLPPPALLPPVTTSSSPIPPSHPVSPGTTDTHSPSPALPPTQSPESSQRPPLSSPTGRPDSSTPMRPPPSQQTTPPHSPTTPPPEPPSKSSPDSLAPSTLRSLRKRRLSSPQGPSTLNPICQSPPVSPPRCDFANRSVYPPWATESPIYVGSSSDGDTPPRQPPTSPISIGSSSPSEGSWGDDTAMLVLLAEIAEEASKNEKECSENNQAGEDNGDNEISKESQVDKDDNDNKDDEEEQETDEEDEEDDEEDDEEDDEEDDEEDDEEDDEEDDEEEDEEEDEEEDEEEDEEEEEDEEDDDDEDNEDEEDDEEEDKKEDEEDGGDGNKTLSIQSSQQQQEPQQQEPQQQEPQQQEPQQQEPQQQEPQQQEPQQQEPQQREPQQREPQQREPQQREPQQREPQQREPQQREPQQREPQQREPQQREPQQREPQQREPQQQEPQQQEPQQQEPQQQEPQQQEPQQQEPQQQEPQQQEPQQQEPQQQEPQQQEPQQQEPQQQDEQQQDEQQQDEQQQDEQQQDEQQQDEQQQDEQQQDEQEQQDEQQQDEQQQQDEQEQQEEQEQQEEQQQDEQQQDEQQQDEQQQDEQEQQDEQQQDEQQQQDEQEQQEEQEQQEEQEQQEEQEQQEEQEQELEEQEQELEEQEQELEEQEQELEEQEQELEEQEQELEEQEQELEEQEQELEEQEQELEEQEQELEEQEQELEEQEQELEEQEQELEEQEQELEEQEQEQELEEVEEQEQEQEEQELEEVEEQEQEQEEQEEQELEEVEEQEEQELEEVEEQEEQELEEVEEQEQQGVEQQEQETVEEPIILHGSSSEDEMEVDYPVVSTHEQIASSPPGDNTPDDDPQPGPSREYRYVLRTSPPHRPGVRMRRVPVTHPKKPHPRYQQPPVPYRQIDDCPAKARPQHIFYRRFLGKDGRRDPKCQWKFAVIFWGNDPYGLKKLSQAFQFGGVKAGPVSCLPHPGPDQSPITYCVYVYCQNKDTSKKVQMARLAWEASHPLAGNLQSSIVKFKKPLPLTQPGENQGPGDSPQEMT
Bfl-1 A1 inh: inhibitors of the anti-apoptotic protein A1, read as caspase activation. MEF A1-2A-BIM cells, Caspase-Glo 3/7 luminescence, 3 h; percent of clofoctol response, vehicle zero. caspase activation, % (concentration not given with the values). hit rate 0.066% among 330,000. AID 2462;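 active = over half of replicate activation scores above 10%, or exactly half above 10 with the replicate mean above 10; inconclusive = replicate mean below 10 yet half the replicates above 10; inactive = over half of replicates below 10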;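 note: wells of about 30 µL received 50 nL stock; many hits fall short of the cut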
T cruzi repl: T. cruzi replication inhibition; hit rate 1.4% among 300,000; AID 1885; inhibition, % (test concentration not listed); T. cruzi beta-gal in NIH3T3, luminescence, 90 h;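 active = mean inhibition across valid replicates above about 55%, limit read from the data; inconclusive = mean below that limit but half or more replicates reach it; inactive = mean below it, under half of replicates reach it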;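 note: signal also drops with host cell toxicity which is not excluded here; 0% = plate median of DMSO wells and 100% = zero luminescence signal; higher percent means less beta-gal luminescence so fewer parasites; stock transfer was 50 nL into about 50 µL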
RanGTP-Impb inh: disruptors of Ran-importin-beta complex formation – biochemical, FRET, CFP-Ran, YFP-importin-beta, homogeneous, primary screen | inhibition, % (concentration not given with the values) | hit rate 1.1% among 300,000 | cell-free CFP-Ran/YFP-importin-beta FRET ratio;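 active = most replicates above 15%; inconclusive = exactly half above 15%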;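 note: 0% = DMSO wells and 100% = Ran loaded with GDP instead of GTP; wells of about 40 µL received 100 nL stock; the first replicate is given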
AF4-AF9 inh: blocks AF4 peptide binding to human AF9; P42568; AlphaScreen, biotin-AF4 peptide binding to FLAG-AF9; inhibition, % at 10 µM; hit rate 0.47% among 350,000; AID 651704;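 active = every replicate reaching a set inhibition limit, whatever the replicate mean, cut at about 25% in these data; inconclusive = mean inhibition reaches that limit but some replicates miss it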;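 note: 0% = plate neutral control median and 100% = total signal loss; the record names both 10 and 1 µM as test concentration; the first replicate is given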
Vif TR-FRET: inhibitors of Vif binding to APOBEC3G peptide, primary screen, biochemical, TR-FRET, GST-Vif 1-94, biotin-A3G peptide, dose response retest (AID 1117319); TR-FRET GST-Vif / biotin-A3G peptide binding; higher % means a stronger effect; test concentration not given here; strong numbers were not always called active; one-dose inhibition, %; IC50 in µM for titrated hits; hit rate 0.57% among 260,000;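 active = above the screen mean plus three standard deviations and confirmed in dose response; inconclusive = results disagree or hit not tested in dose response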;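 note: Vif residues 1-94 fused to GST binding biotinylated APOBEC3G peptide 110-148; 0% = full assay without inhibitor and 100% = GST in place of GST-Vif; retest series ran down from 100 µM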
Beta apoptosis: beta cell apoptosis inhibition; INS-1E cytokine-induced death, ATP luminescence, 48 h; percent of positive-control rescue, neutral wells zero; protection from apoptosis, % (concentration not given with the values); hit rate 0.8% among 300,000; AID 435005;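 active = all replicates at 75% or more, or half of them and the mean; inconclusive = half reach 75% but not the mean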;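 note: 0% = cytokine-treated negative control wells and 100% = positive control rescue; higher means more ATP so stronger rescue from cytokine killing; wells of about 40 µL received 100 nL stock; the first replicate is given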
An asterisk follows results filed as active; ? = inconclusive; / = no result given; & = joins results of further samples.

SMILES	Calb FLC	LANA-H2B inh	Bfl-1 A1 inh	T cruzi repl	RanGTP-Impb inh	AF4-AF9 inh	Vif TR-FRET	Beta apoptosis
CNS(=O)(=O)c1cccc(C(=O)OC2CCCCC2=O)c1 (stereo not drawn)	-16	-2.4	0.2	7	-1.0	/	3%	-2
O=C(COc1ccc(-c2nnco2)cc1)Nc1c(F)cccc1F	/	-2.1	0.4	0	8.9	?	-3%	-5
Cc1cc(C)n(-c2nc3ccccc3nc2N2CCN(C(=O)c3ccccc3)CC2)n1	-5	-3.1	-1.0	-3	-1.8	/	0%	-3
COc1ccc(C(=O)Nc2ccncc2)cc1OC	3	9.9	-3.8	-14	1.9	3.1	7%	15
CCN1C(=O)/C(=C/c2cccs2)N(C)C1=S	2	1.7	-0.4	6	1.0	/	15%	5
CC(C)N(C(=O)NC(=O)Nc1ccc(S(=O)(=O)N2CCCC2)cc1)S(C)(=O)=O	4	-0.2	-2.7	-16	2.0	-3.6	7%	-1
CC(=O)Oc1ccc(/C=N/NC(=O)CCSc2ccccc2)cc1	-1	2.9	0.1	-23	0.6	1.4	/	-1
O=C(Nc1ccccc1N1CCOCC1)c1cccc(F)c1	7	0.3	2.7	-4	-4.7	-0.1	-1%	-1
COc1ccc(C(=O)COC(=O)C(CCSC)NS(=O)(=O)c2ccc(Cl)cc2)cc1 (stereo not drawn)	-26	176*	-0.1	0	3.3	/	17%	-8
COc1ccc2cnn(Cc3ccccc3)c(=O)c2c1OC	-2	-2.5	-0.1	-16	0.1	/	-4%	-8
C=CCOc1ccc(/C=N/NC(=O)c2c(C)nc3ccc(Cl)cn23)cc1	1	-2.0	-0.2	11	1.5	-0.3	/	-7
O=S(CC1CC1(Cl)Cl)CC1CC1(Cl)Cl (stereo not drawn)	-9	-3.6	-0.1	-9	-3.0	2.1	25%	1
CCOCCCNCc1ccc(OCc2ccccc2C)c(OC)c1	-1	1.5	-0.6	52	-7.7	9.5	-7%	0
Cn1c(CNc2ccc(Cl)cc2)nnc1SCC#N	-2	-3.1	0.3	-6	-3.4	-4.1	/	-5
CC(=O)c1ccc(NC(=O)Nc2ccc([N+](=O)[O-])cc2)cc1	2	3.8	-0.4	-7	3.3	1.0	-15%	30
O=[N+]([O-])c1ccc2nnn(O)c2c1	-2	4.9	1.7	-1	-0.2	/	6%	-2
CCn1c(=NC(=O)CN2C(=O)CCC2=O)sc2c(OC)ccc(OC)c21	0	-5.3	-0.8	-3	2.3	-5.0	?	-3
COC(=O)c1ccc(NC(=O)CN(C)S(=O)(=O)c2ccc(OC)c(C)c2)cc1	-1	-6.6	-0.2	-1	-2.2	/	0%	3
Cc1ccn2c(CNC(C)c3cn(C)nc3C)c(C(=O)N3CCCCCC3)nc2c1 (stereo not drawn)	-1	2.1	0.2	2	-2.2	0.7	/	-3
O=[N+]([O-])c1cc2c(cc1CN1CCN(CCOCCO)CC1)OCO2	11	-3.1	-0.2	4	-1.1	-1.6	/	-4
COc1cc(NC(=S)Nc2ccccn2)cc(OC)c1OC	6	-0.9	0.1	-11	-0.7	2.5	/	0
COc1ccc(C(c2c(C)n(C)n(-c3ccccc3)c2=O)c2c(C)n(C)n(-c3ccccc3)c2=O)cc1OC	6	-1.0	0.1	-5	-7.7	-3.9	/	-4
CCS(=O)(=O)c1ccc(O)c(NC(=O)c2cc(OC)c(OC)c(OC)c2)c1	-6	0.9	0.7	-8	-0.6	/	5%	0
CN(C)c1ccc(C2NCCS2)cc1 (stereo not drawn)	5	-5.2	/	-23	1.4	/	7%	-9
O=C(COC(=O)c1nc(Cl)ccc1Cl)Nc1ccccc1OC(F)F	5	-2.3	-0.1	-7	5.7	0.4	?	-3
CN(C)C(CNC(=O)c1ccc(C(=O)c2ccccc2)cc1)c1ccccc1 (stereo not drawn)	3	-4.1	-1.1	-7	?	6.1	/	/
FC(F)(F)c1ccccc1N/N=C/c1cccnc1	-2	-5.7	-1.1	-8	3.3	5.8	/	-1
O=C(c1ccccc1)c1ccc(OCC(O)CN2CCCCC2)cc1 (stereo not drawn)	-1	-5.9	-0.4	-7	?	/	5%	3
S=c1[nH]nc(Cc2sc(-c3ccccc3)nc2-c2ccccc2)o1	42	-0.9	1.1	-2	0.3	/	?	1
COc1ccc(-c2nc(CSCC(=O)NC3CCCc4ccccc43)c(C)o2)cc1OC (stereo not drawn)	-3	2.7	-1.0	7	-2.5	/	-4%	-3
CC1Cc2ccccc2N1C(=O)Cn1cc([N+](=O)[O-])cn1 (stereo not drawn)	-6	-3.7	0.9	-5	1.4	/	-4%	0
Clc1ccc(-c2cnc3n2CCCCC3)cc1	-14	-1.0	-0.5	-14	3.0	6.2	-5%	-4
CC(=O)c1sc(-c2ccc(Cl)cc2)nc1C	11	-7.1	-4.5	-1	2.7	-2.4	-5%	4
CCn1c(COc2ccc(OC)cc2)nnc1SCc1nc2ccccc2c(=O)[nH]1	-6	0.0	0.2	-8	0.2	/	6%	3
CCCN1CCN(C(=O)Cn2c(=O)oc3cc(S(=O)(=O)NCc4ccccc4)ccc32)CC1	-4	-0.4	0.9	-5	0.5	7.4	?	-5
O=C(c1ccccc1Cl)N1CCC(c2nc3c(nnn3Cc3ccco3)c(=O)[nH]2)CC1	2	-0.2	0.6	-1	2.3	-5.3	-7%	/
CCc1ccc(N(C(=O)c2csnn2)C(C(=O)NCc2ccccc2)c2ccco2)cc1 (stereo not drawn)	2	-1.4	0.6	14	1.0	/	?	1
CC1(C)CC(=O)C2=C(C1)NC(=O)NC2c1ccc([N+](=O)[O-])cc1 (stereo not drawn)	-4	-0.7	0.2	4	0.1	0.1	/	-1
CCOc1cccc(C(=O)NC(=S)Nc2ccc(Cl)cc2C(=O)O)c1	-1	2.3	-5.5	-20	2.4	-2.2	18%	-4
O=c1oc(-c2ccccc2NS(=O)(=O)c2ccc(Cl)cc2)nc2ccccc12	10	1.6	0.1	4	0.7	-6.7	/	-3
O=C(COC(=O)CN1C(=O)C2CCCCC2C1=O)NCc1ccc(Cl)cc1Cl (stereo not drawn)	/	3.1	-0.9	/	/	-1.8	/	-6
CC(NC(=O)c1ccccc1Cl)C(=O)O (stereo not drawn)	14	6.6	0.2	-9	-0.6	/	23%	-5
COc1ccc(N(C(=O)Cn2nnc3ccccc32)C(C(=O)NCc2ccco2)c2cccnc2)cc1 (stereo not drawn)	4	-5.9	-0.1	8	-2.2	/	-3%&-5%	-6
COc1ccc(N(C(=O)CCl)C(C(=O)NCCc2ccccc2)c2cccs2)cc1 (stereo not drawn)	4	/	0.6	12	1.6	1.3	/	-4
CC(=O)c1cccc(NC(=O)Nc2ccc3c(c2)CCC3)c1	-20	6.7	-0.9	-9	-6.3	0.5	/	3
CCOc1cnn(Cc2ccccc2)c(=O)c1SCc1ccccc1	-2	-4.2	0.5	12	-1.6	/	/	-7
C=C(C)CSc1nnc(-c2cccc(Cl)c2)n1N	0	4.7	0.7	3	1.8	/	29%	-4
CN(C)S(=O)(=O)Nc1ccccn1	-1	0.1	0.1	-8	-0.1	-1.4	/	1
COc1ccc(C(=O)Nn2cnc3ccccc3c2=O)c(OC)c1	4	-1.9	-0.5	19	-3.1	-1.2	4%	-3
CCn1c2ccccc2c2nnc(SCC(=O)OCN3C(=O)c4ccccc4C3=O)nc21	-2	1.6	-0.2	-12	-3.3	/	0%	-17

An excerpt of these results, with two lines to a compound.
Each structure is followed by: Calb FLC | LANA-H2B inh | Bfl-1 A1 inh | T cruzi repl | RanGTP-Impb inh | AF4-AF9 inh | Vif TR-FRET | Beta apoptosis
> CCOc1cnn(Cc2ccccc2)c(=O)c1SCc1ccccc1
  -2 | -4.2 | 0.5 | 12 | -1.6 | / | / | -7
> C=C(C)CSc1nnc(-c2cccc(Cl)c2)n1N
  0 | 4.7 | 0.7 | 3 | 1.8 | / | 29% | -4

Carrying on.
SMILES	Calb FLC	LANA-H2B inh	Bfl-1 A1 inh	T cruzi repl	RanGTP-Impb inh	AF4-AF9 inh	Vif TR-FRET	Beta apoptosis
Cc1cc(=O)oc2cc(OC(C)C(=O)NC3(C#N)CCCCC3)ccc12 (stereo not drawn)	/	1.8	0.3	/	/	-1.3	/	-3
COc1ccc(C2C(C(=O)c3ccco3)=C(O)C(=O)N2c2nnc(C)s2)cc1 (stereo not drawn)	20	2.4	0.5	-12	3.8	-1.4	-17%	1
Cc1nc(NC(=O)C2CC2)sc1C(=O)Nc1ccc(Br)cc1	26	3.5	-0.3	15	0.5	2.1	/	10
COc1ccc(/C=N/Nc2cc(=O)n(C)c(=O)n2C)cc1OC	10	4.6	0.9	-28	-1.3	1.4	13%	5
O=C(NCC1CCN(C(=O)c2ccc([N+](=O)[O-])cc2)CC1)C(=O)Nc1ccccc1	-1	1.2	0.9	23	0.0	-2.0	-2%	8
COCCNC(=S)N/N=C(\C)c1ccc(OC)cc1	1	-0.6	0.5	-25	-0.7	2.7	-5%	-3
NC(=O)CSC1=Nc2ccccc2C2=NC(CCC(=O)NCc3ccc(F)cc3)C(=O)N12 (stereo not drawn)	-4	4.9	0.0	-8	-1.9	/	6%	-3
CCCCN(C(=O)CSCC(=O)Nc1cccc(C)c1)c1c(N)n(CCCC)c(=O)[nH]c1=O	2	6.1	0.0	5	1.6	0.0	14%	-6
CCC(C)(C)n1nnnc1C(c1cccc(C#N)c1)N1CCN(c2cc(C)ccc2C)CC1 (stereo not drawn)	22	5.7	0.2	61*	6.6	/	/	12
C=CC[n+]1c(-c2ccc(C)cc2)csc1NNC(=O)Nc1ccccc1	60	4.9	-1.3	-25	-3.4	/	8%	/
O=C(C1=COCCO1)N1CCN(S(=O)(=O)c2cccc(F)c2)CC1	/	-1.2	0.5	/	/	0.6	-3%	-4
O=C(NCCCN1CCN(c2ccccc2F)CC1)C1CCN(S(=O)(=O)c2cccs2)CC1	-13	-3.9	-0.3	-10	4.3	/	5%&-10%	14
N#Cc1c(C(F)(F)F)cc(-c2ccccc2)nc1SCCN1CCOCC1	16	-5.6	0.0	24	-7.1	6.7	-6%	4
CSCCC(NC(=O)C12CC3CC(CC(C3)C1)C2)C(=O)OCC(=O)c1ccc(Cl)cc1 (stereo not drawn)	5	3.9	1.0	-1	2.5	/	22%	1
O=C(NCC1CCCO1)C(=O)N/N=C/c1ccc(OCc2ccccc2Cl)cc1 (stereo not drawn)	2	0.8	-1.6	-11	0.0	0.2	-10%	-5
CC(C)OC(=O)CC1C(=O)NCCN1C(=S)NC(=O)c1ccccc1 (stereo not drawn)	-8	1.2	0.3	-22	-2.6	-2.2	3%	0
O=C1CCCCN1CCC(=O)N1CCCC(Nc2ccc(F)c(F)c2)C1 (stereo not drawn)	32	1.3	-1.1	-1	2.2	-1.9	/	-9
CC(=O)Nc1ccc(S(=O)(=O)NNC(=S)NCC2CCCO2)cc1 (stereo not drawn)	-13	0.6	1.3	-19	6.9	-2.0	/	-5
CN(C)c1ccc(C2OC(=O)C(C)(C)C(=O)C2(C)C)cc1 (stereo not drawn)	-23	-6.2	-1.0	-18	-1.0	/	4%	-6
O=C1CSC(c2ccc([N+](=O)[O-])cc2)N1c1ccccc1 (stereo not drawn)	-9	0.7	1.5	1	4.1	3.0	-2%	-8
O=C(CN1c2cccc3cccc(c23)S1(=O)=O)N1CCN(c2ccccc2)CC1	/	0.4	0.2	/	/	3.9	/	2
